# HPGD inh: qHTS Assay for Inhibitors of HPGD (15-Hydroxyprostaglandin Dehydrogenase) | 15-hydroxyprostaglandin dehydrogenase [NAD(+)] (Homo sapiens), P15428 | purified HPGD, NADH fluorescence kinetic, PGE2 substrate | Potency, µM, for inactives: at the highest dose activity change, negative = inhibition, actives largely listed as inhibitors | 4.3% of 150,000 active; active = well fitted inhibition curve with a large enough effect (not every such curve was filed as active); inconclusive = small, poorly fitted or top-dose-only effect, or another doubt; inactive = no such curve, though single readings can be large or run the other way;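 note: top concentration of the series not given in the record; plate controls included wells without enzyme; inactives centre near -10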
# Target sequence (P15428 whole entry, looked up): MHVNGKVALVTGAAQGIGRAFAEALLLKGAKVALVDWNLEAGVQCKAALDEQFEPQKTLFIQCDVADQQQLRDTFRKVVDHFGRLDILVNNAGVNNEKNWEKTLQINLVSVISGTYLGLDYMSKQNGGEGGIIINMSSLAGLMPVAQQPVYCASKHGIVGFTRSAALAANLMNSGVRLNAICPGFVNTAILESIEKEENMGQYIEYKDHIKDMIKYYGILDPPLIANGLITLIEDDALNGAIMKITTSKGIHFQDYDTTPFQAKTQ
#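 20 nM HPGD preincubated 15 min at room temperature with compound in 50 mM Tris-HCl pH 8, 0.01% Tween 20. Started with 1 mM NAD+ and 30 uM prostaglandin E2; NADH fluorescence (360/450 nm) read 5 times over 30-s intervals, last minus first.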
# * hit, by the source's call; ? = inconclusive; & = joins results of further samples. % is set by controls: 0 for no effect and ±100 for the full control effect; potency is the fitted concentration of half-maximal effect. Some of the compounds tested. The share of hits here may be higher or lower than overall.
SMILES,HPGD inh
CCOC(=O)Cc1cnc(NC(=O)Cn2nnc(-c3ccc(OCC)cc3)n2)s1,-7%
O=S(=O)(c1cccc2ccccc12)n1nnc2ccccc21,2%
Cc1ccc(Cl)c(NC(=O)COC(=O)CNS(=O)(=O)/C=C/c2ccccc2)c1Cl,-20%
Cc1ccc(-n2c(N)c(C(=O)Nc3c(C)n(C)n(-c4ccccc4)c3=O)c3nc4ccccc4nc32)cc1C,-5%
O=S(=O)(c1ccc(S(=O)(=O)N2CCCC2)cc1)N1CCCCCC1,1%
COCCn1c(=S)[nH]c2cc(C(=O)NC(C)C)ccc2c1=O,-12%
COC(=O)c1ccccc1NC(=O)C1CCN(S(=O)(=O)c2cc(C)ccc2OC)CC1,-9%
CN(c1ccccc1)S(=O)(=O)c1ccc(Cl)c(C(=O)NCCc2c[nH]c3ccccc23)c1,-1%
CCOC(=O)CN1C(=O)N[C@@H](CCc2ccccc2)[C@H](C(C)=O)[C@H]1C,-7%
CCCn1c(SCc2nc(-c3cccs3)no2)nnc1-c1ccncc1,0%
CC(=O)Nc1nc(=O)c2ccccc2s1,-11%
CCC(=O)Nc1c(S(=O)(=O)c2ccccc2)c2nc3ccccc3nc2n1C(C)c1ccccc1 (stereo not given),?
CCOc1ccc(/C=C/C(=O)c2cccs2)cc1,?
COCCn1c(SCC(=O)Nc2nnc(C)s2)nnc1-c1cc2ccccc2cc1O,?
Cn1c(=O)[nH]c(=O)c2c1nc(CN1CCOCC1)n2CCCc1ccccc1,-5%
O=C(O)CCC(=O)Nc1ccc(N2CCCCCC2)cc1,-16%
CC(C)Cn1c(-c2ccc(Cl)cc2)cnc1SCC(=O)N1CCOCC1,-15%
CCC(Oc1ccccc1)C(=O)N1CCN(CC)CC1 (stereo not given),-10%
CCOC(=O)c1ccc(NC(=O)C2(c3ccc(OC)cc3)CCCC2)cc1,-5%
Nc1nc(C2CC2)c(Sc2sc(N)nc2C2CC2)s1,-12%
CCCNC(=O)Nc1ccc2c(c1)nc(C)n2C,2%
O=C(CCc1ccccc1)NC(=S)Nc1cccc(Br)c1,-26%
CC(C)CC1NC(=O)N(CC(=O)N2CCN(S(=O)(=O)c3ccccc3)CC2)C1=O (stereo not given),-4%
CCCc1[nH]nc2c1C(c1cccnc1)C(C#N)=C(N)O2 (stereo not given),-6%
Cc1ccc(OCC(=O)Nc2ccc(O)c(-c3nc4ccccc4o3)c2)cc1,-13%
CCc1nnc(NC(=O)CSc2ccc(-c3nc4ccccc4[nH]3)cn2)s1,?
COc1cc(NC(=O)C(C)Oc2ccccc2)cc(OC)c1 (stereo not given),-6%
Cc1c2cnn(CC(=O)N3CCN(c4ncccn4)CC3)c(=O)c2c(C)n1Cc1ccc(F)cc1,-11%
CN1CCN(C2=C(Cl)C(=O)C(c3cnc(N4CCCCC4)s3)=C(Cl)C2=O)CC1,4%
COC(=O)c1ccn(C(=O)c2ccc(Cl)cc2)n1,-11%
CC(C(=O)NC1CCCCCC1)N(c1ccccc1)S(C)(=O)=O (stereo not given),-11%
O=C1/C(=C/c2ccco2)Cc2ccccc21,?
COc1ccc(NC(=O)c2ccco2)cc1NC(=O)c1ccco1,-4%
CC(C)=CCC/C(C)=C/COc1ccc2ccc(=O)oc2c1,?
CC1(C)CC2(CC(c3ccccc3)Oc3cc(O)ccc32)NC(=S)N1 (stereo not given),-2%
NS(=O)(=O)c1ccc(CCNC(=O)c2ccc(S(=O)(=O)N3CCCCC3)cc2)cc1,4%
COc1ccc(CNC(=S)N/N=C/c2ccncc2)cc1,-22%
COc1ccc(-c2[nH]ncc2/C=N\NS(=O)(=O)c2ccccc2)cc1OC,-5%
CC1(C)Cc2c(c(-c3ccccc3)nc(N3CCOCC3)c2C(N)=O)CO1,-8%
CC/C(=N/Nc1ccc(Cl)cc1)c1cnnc(SC)n1,-11%
COc1ccc(-n2c3c(cc(C(=O)N4CCN(CCO)CC4)c2=O)C(=O)CC(C)(C)C3)cc1,-5%
COc1ccc(CC(=O)OCC(=O)NC(=O)NC2CCCCC2)cc1,0%
Cc1cccc(NN=C2c3ccccc3-c3ccccc32)c1,-6%
Cc1ccc(OCC(=O)Nn2cnnc2)c(Br)c1,-5%
CCOC(=O)C1CCCN(C(=O)c2sc3nc(C)nc(N4CCOCC4)c3c2C)C1 (stereo not given),-17%

# 5 of the entries above in order of their number in HPGD inh, descending.
SMILES,HPGD inh
O=S(=O)(c1cccc2ccccc12)n1nnc2ccccc21,2%
CC1(C)CC2(CC(c3ccccc3)Oc3cc(O)ccc32)NC(=S)N1 (stereo not given),-2%
COc1ccc(-n2c3c(cc(C(=O)N4CCN(CCO)CC4)c2=O)C(=O)CC(C)(C)C3)cc1,-5%
CCC(Oc1ccccc1)C(=O)N1CCN(CC)CC1 (stereo not given),-10%
Nc1nc(C2CC2)c(Sc2sc(N)nc2C2CC2)s1,-12%

# Additional results:
SMILES,HPGD inh
CC(C)(C)S(=O)(=O)c1cnc2c(-c3ccc(F)cc3)cnn2c1N,-17%
COc1ccc(OC)c(C(=O)COC(=O)CNC(=O)C2CCCCC2)c1,-16%
COc1ccc2cc3cc(C(=O)NCCc4ccc(OC)c(OC)c4)oc3nc2c1,?
CCOC(=O)Cc1csc(NC(NC(=O)CC)(C(F)(F)F)C(F)(F)F)n1,-9%
COc1ccc(-c2noc(CN3CCCCC3)n2)cc1OC,-10%
COC1CCCCC1Nc1cccc(SC)c1 (stereo not given),-4%
CC(CCc1ccccc1)NC(=O)C1CCN(S(=O)(=O)N2CCOCC2)CC1 (stereo not given),-10%
Cc1cccc(C(=O)NC(NCc2ccco2)C(Cl)(Cl)Cl)c1 (stereo not given),-4%
O=C(C(=O)N1CCCc2ccccc21)c1c[nH]c2ccccc12,-10%
CCCCCCC(=O)N/N=C/c1ccco1,-8%
O=C(Nc1ccc(-c2nc3ncccc3o2)cc1)c1ccco1,?
COc1c(N2CCNC(C)C2)c(F)cc2c(=O)c(C(=O)O)cn(C3CC3)c12 (stereo not given),?
CCOc1ccc(CN(CCO)CCO)cc1[N+](=O)[O-],-5%
O=C(CS(=O)(=O)c1cccc(C(F)(F)F)c1)Nc1ccccc1Cl,-4%
COc1ccc(NC(=O)CCC(=O)c2cccs2)cc1S(=O)(=O)Nc1ccccc1Cl,-18%

# Copied from the listing (5 entries):
SMILES,HPGD inh
O=C(Nc1ccc(-c2nc3ncccc3o2)cc1)c1ccco1,?
COc1c(N2CCNC(C)C2)c(F)cc2c(=O)c(C(=O)O)cn(C3CC3)c12 (stereo not given),?
CCOc1ccc(CN(CCO)CCO)cc1[N+](=O)[O-],-5%
O=C(CS(=O)(=O)c1cccc(C(F)(F)F)c1)Nc1ccccc1Cl,-4%
COc1ccc(NC(=O)CCC(=O)c2cccs2)cc1S(=O)(=O)Nc1ccccc1Cl,-18%

# (listing goes on)
SMILES,HPGD inh
O=S(=O)(Cc1ccccc1Cl)N1CCN(Cc2ccc3c(c2)OCO3)CC1,-18%
Cc1ccc(NC(=S)NCCC(c2ccccc2)c2ccccc2)c(C)c1,-24%
COc1ccc(C2C(C#N)=C(N)Oc3c2sc2nc(C)cc(C)c32)cc1 (stereo not given),-6%
CCN1C(=O)/C(=C\N(C(C)=O)c2ccccc2)OC1=S,?
C=CCNC(=S)N/N=C/c1ccc(N(CC)Cc2ccccc2)cc1,?
CCOC(=O)c1nc(S(C)(=O)=O)ncc1Cl,-11%
Cc1[nH]ccc(=O)c1OCc1ccccc1,-15%
CCOC(=O)NC1(C(F)(F)F)C(=O)N(Cc2ccccn2)C2=C1C(=O)CC(C)(C)C2 (stereo not given),-6%
COC(=O)Cc1c(C)nc2nc[nH]n2c1=O,-11%
CCn1c(-c2ccc(-c3ccccc3)cc2)c[nH]c1=S,?
O=C(NCc1ccc2c(c1)OCO2)c1nnc(Cc2ccc(F)cc2)o1,-7%
COc1ccc(CNC(=O)COC(=O)c2cc(-c3ccc(Cl)s3)nc3ccccc23)cc1,?
Cc1c(NC(=O)C(C)OC(=O)C(NC(=O)c2ccco2)C(C)C)c(=O)n(-c2ccccc2)n1C (stereo not given),-14%
CCOc1ccc(N2CC(C(=O)OC)CC2=O)cc1 (stereo not given),-28%
CC1CN(CC(O)COC(c2ccc(Cl)cc2)c2ccc(Cl)cc2)CC(C)O1 (stereo not given),-16%
CCOc1ccc(C(=O)OCc2nnc(-c3cccs3)o2)cc1OC,25µM*
C=CCn1c(=NC(=O)c2cc(Cl)sc2Cl)sc2cc(S(N)(=O)=O)ccc21,-9%
Cn1cc(-c2nnnn2-c2ccc(Cl)cc2)c(C(F)(F)F)n1,2%
CCOC(=O)/C(C#N)=C\c1ccc(OCC(=O)Nc2ccc(C)cc2C)c(OC)c1,?
Cc1cc(NC(=O)Nc2cccs2)no1,-4%
COc1ccc(NC(=O)CC2C(=O)N(C)C(=S)N2Cc2ccc3c(c2)OCO3)cc1 (stereo not given),-13%
COc1ccc(OC)c(NC(=O)C(CC(=O)O)Cc2ccc(Cl)cc2)c1 (stereo not given),-10%
COc1ccc(C(=O)CSc2nnc(-c3cccnc3)n2Cc2ccco2)cc1,-8%
Cc1ccc(S(=O)(=O)NC2CCOC(C)(C)C2)cc1 (stereo not given),3%
CCn1ncc(CNC(=O)CCCSc2nc(-c3ccco3)cc(C(F)(F)F)n2)c1C,-6%
COc1cccc(CNn2cnnc2)c1OCc1ccccc1F,-8%
CCCCNc1nc(-c2ccccc2)nc(-n2ccnc2)n1,-15%
O=C(N1CCCC1)C12CC3CC(CC(C3)C1)C2,-3%
Cc1ccc(N(CC(=O)NCc2ccco2)S(=O)(=O)c2ccccc2)cc1,-9%
Cc1ccc(S(=O)(=O)Nc2ccccc2CNc2c(C)n(C)n(-c3ccccc3)c2=O)cc1,-4%
CCC1=C(OC(=O)N(CC)CC)N2C(=O)OC(=NCC3CC3)[C@]2(C)[C@H]2C1=CC[C@H]1C(=O)N(CC(=O)OC)C(=O)[C@H]12,0%
COc1ccc(C(=O)c2oc3nc(C)cc(C)c3c2N)cc1,-8%
O=C(O)CCCCCn1c(SCC(=O)c2ccc(O)c(O)c2)nc2ccsc2c1=O,?
Cc1nn(C)c(C)c1CNC(=O)c1cnn2c1NC(c1ccccc1)CC2C(F)(F)F (stereo not given),-18%
O=C(Cc1ccccc1)NN1C(=O)C2C3C=CC([C@@H]2C1=O)C31CC1 (stereo not given in full),-6%
CS(=O)(=O)N(CC(=O)N1CCCCCC1)c1ccc(Br)cc1,-4%
COc1cc(/C=C/C(=O)OCC(=O)NCc2cccs2)ccc1OCC#N,?
Clc1ccc(CSCc2ccc(Cl)cc2Cl)c(Cl)c1,-10%
CCOC(=O)N1CCN(C(=O)c2cnc(Nc3ccccc3OC)c3ccccc23)CC1,?
CCCCNC(=O)C1c2ccccc2C(=O)N(c2ccc(OC)cc2)C1c1ccc(OC)cc1 (stereo not given),-12%
C=CCNC(=O)C(=O)c1cccn1-c1ccsc1C(=O)OC,-1%
O=C(OCC(=O)N1CCc2ccccc21)c1ccc[n+]([O-])c1,-10%
CCOC(=O)c1c(C)n(C)c2ccc(OC)c(NC(=O)CN3CCSCC3)c12,-8%
CCOc1ccccc1NC(C)C(=O)Nc1cc(C(F)(F)F)ccc1N1CCOCC1 (stereo not given),-3%
COc1ccc(N(C(=O)c2ccco2)C(C(=O)NC2CCCCC2)c2cccs2)cc1OC (stereo not given),-1%
CCCn1c(C)nc2c(N3CCN(C)CC3)nc(C)nc21,-1%
Cc1cc(C)n(CNc2nc(C(F)(F)F)cs2)n1,-8%
CCOC(=O)CN1C(=O)N[C@@H](c2ccc(Br)cc2)C(C(C)=O)=C1C,-8%&-1%
O=C(CSc1nccc(=O)[nH]1)Nc1ccc(F)c([N+](=O)[O-])c1,?
CC(N)=Nc1ccc([N+](=O)[O-])cc1,-14%
COc1ccc(NC(=O)Nc2cccc3cccnc23)cc1,-10%
CNC(=O)CN(c1cc([N+](=O)[O-])ccc1OC)S(C)(=O)=O,-3%
Cc1cc(NC(=O)CCC(=O)N(CC(=O)NCC2CCCO2)Cc2ccc(F)cc2)no1 (stereo not given),-11%
CC(C)(C)NC(=O)C(c1ccncc1)N(Cc1cccs1)C(=O)Cn1nnc(-c2cccs2)n1 (stereo not given),-20%
Cc1cc(Nc2c(C)n(C)n(-c3ccccc3)c2=O)c2ccccc2n1,-2%
COc1ccc(C2C=C(c3ccccc3)Nc3nnnn32)cc1 (stereo not given),-16%
CCN(CC)CCCCCOc1ccccc1OC,-8%
COc1ccc(NCCC#N)cc1,-13%
OCCSCc1ccccc1,-9%
CCCCn1nnnc1SCC(=O)NCc1ccco1,5%

# 2 records picked at random from those above:
SMILES,HPGD inh
COc1ccc(NCCC#N)cc1,-13%
Cc1cc(NC(=O)CCC(=O)N(CC(=O)NCC2CCCO2)Cc2ccc(F)cc2)no1 (stereo not given),-11%

# Next section.
SMILES,HPGD inh
O=[N+]([O-])c1ccc(N2CCOCC2)nc1,?
CCOC(=O)C1=C(C)N=C2SCCC(=O)N2C1c1sccc1C (stereo not given),-17%
Cc1cc(NC(=O)CSc2nc3ccccc3n2CC(=O)N2CCC(C)CC2)no1,-10%
CC(C)(C)Cc1cc(N)on1,-2%
CSc1nc(-c2ccc(Cl)cc2Cl)[nH]c(=O)c1C#N,2.5µM*
Cc1ccc[n+](CC(=O)c2ccc(-c3ccccc3)cc2)c1,-28%
Cn1c(-n2c(-c3ccco3)nc3ccccc3c2=O)nc2ccccc21,-13%
CSc1nnc(COc2ccc(C)cc2)n1N,-9%
